MLL AF4-AF9 inh: inhibitors of human MLL-AF4/AF9 interaction; hit rate 0.47% among 350,000; P42568; inhibition, % at 10 µM; AlphaScreen, biotin-AF4 peptide binding to FLAG-AF9;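 active = every replicate reaching a set inhibition limit, whatever the replicate mean, cut at about 25% in these data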;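 also: 0% = plate neutral control median and 100% = total signal loss; the record names both 10 and 1 µM as test concentration; the first replicate is given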
Target sequence (P42568 whole entry, looked up): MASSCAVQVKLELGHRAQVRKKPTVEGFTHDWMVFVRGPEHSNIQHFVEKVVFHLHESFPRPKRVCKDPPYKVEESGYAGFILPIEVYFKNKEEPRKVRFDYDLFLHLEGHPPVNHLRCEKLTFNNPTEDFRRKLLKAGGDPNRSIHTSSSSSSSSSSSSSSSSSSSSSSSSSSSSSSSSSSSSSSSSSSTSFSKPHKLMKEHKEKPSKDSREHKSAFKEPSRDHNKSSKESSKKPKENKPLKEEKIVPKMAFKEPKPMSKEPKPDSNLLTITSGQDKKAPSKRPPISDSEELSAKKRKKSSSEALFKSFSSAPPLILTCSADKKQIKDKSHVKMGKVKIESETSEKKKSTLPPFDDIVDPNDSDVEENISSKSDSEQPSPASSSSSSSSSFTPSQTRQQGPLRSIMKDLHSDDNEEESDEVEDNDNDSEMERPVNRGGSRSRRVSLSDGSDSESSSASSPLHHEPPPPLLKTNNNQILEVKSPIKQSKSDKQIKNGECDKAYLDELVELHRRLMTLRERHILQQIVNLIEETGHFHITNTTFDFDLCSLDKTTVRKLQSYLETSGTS
FGF22 binding: shifts melting point of recombinant human FGF22; hit rate 1.5% among 340,000; AID 651658; calls only at 9.99 µM; recombinant FGF22 thermal shift, SYPRO orange fluorescence; percent of sucrose octasulfate shift, DMSO zero; Q9HCT0;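 active = melting point raised past a set limit in the mean and every replicate; three in four hits are not shown here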
Target sequence (Q9HCT0 whole entry, looked up): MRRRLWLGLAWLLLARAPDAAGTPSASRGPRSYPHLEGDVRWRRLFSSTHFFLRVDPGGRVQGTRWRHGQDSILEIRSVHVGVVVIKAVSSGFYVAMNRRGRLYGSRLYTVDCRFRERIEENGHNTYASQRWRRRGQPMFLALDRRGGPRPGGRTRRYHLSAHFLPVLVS
UCH37 inh: inhibitors of human deubiquitinating enzyme UCH37. Q9Y5K5. purified proteasome/UCH37, Ub-AMC cleavage fluorescence. inhibition, % (test concentration not listed). hit rate 0.33% among 330,000. AID 588478;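 active = mean of two replicates above 20%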;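 also: 0% = compound-free wells with enzyme and 100% = wells lacking proteasome; stock transfer was 100 nL into about 20 µL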
Target sequence (Q9Y5K5 whole entry, looked up): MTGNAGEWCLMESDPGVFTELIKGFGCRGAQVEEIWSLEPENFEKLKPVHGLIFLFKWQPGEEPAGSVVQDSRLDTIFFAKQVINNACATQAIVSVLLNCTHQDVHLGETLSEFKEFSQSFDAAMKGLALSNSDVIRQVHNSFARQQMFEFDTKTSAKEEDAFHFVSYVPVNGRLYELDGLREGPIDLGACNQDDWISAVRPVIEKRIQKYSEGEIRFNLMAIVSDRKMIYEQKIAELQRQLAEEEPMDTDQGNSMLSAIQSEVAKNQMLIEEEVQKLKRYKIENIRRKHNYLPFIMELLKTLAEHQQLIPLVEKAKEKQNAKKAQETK
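assay system = human UCH37 enzyme supplied as purified proteasome complex | amount = proteasome at 0.15 nM in the dispensed enzyme solution | schedule = 30 min compound-proteasome preincubation then 25 min substrate reaction, room temperature | measured by = fluorescence, ex 355 nm, em 460 nm | benchmarks = no-proteasome wells (full inhibition) and compound-free wells (no inhibition)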
Ecoli rRNA inh: inhibits bacterial ribosomal RNA function over humanized ribosomes; E. coli WT GFP vs humanized-ribosome RFP mutants, fluorescence, 24 h; stronger effect = lower value; DMSO median 0, no signal -100; GFP signal change (wild-type ribosome), % (test concentration not listed); hit rate 1.6% among 350,000;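 active = significant combined selectivity score with lowered wild-type GFP, culture density cut under 30%, mutant RFP and density less affected; inactive = any of these conditions unmet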; also: one replicate is shown; some compounds called inactive have numbers as strong as hits
Bfl-1 A1 inh: inhibitors of the anti-apoptotic protein A1, read as caspase activation; caspase activation, % (no concentration beside the values); MEF A1-2A-BIM cells, Caspase-Glo 3/7 luminescence, 3 h; percent of clofoctol response, vehicle zero; hit rate 0.066% among 330,000;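 active = over half of replicate activation scores above 10%, or exactly half above 10 with the replicate mean above 10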;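 also: wells of about 30 µL received 50 nL stock; many hits fall short of the cut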
Ecoli growth: inhibitors of Escherichia coli growth | OD600, 23 h; stronger effect = lower value | OD600 absorbance (test concentration not listed) | AID 1053175 | hit rate 0.21% among 330,000;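 active = OD600 absorbance below the run mean of sample wells minus 3.6 SD, in any replicate, cut at about 0.56 in these data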;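 also: stock transfer was 300 nL into about 60 µL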
T cruzi repl: blocks replication of Trypanosoma cruzi | T. cruzi beta-gal in NIH3T3, luminescence, 90 h | inhibition, % (concentration not given with the values) | hit rate 1.4% among 300,000;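 active = mean inhibition across valid replicates above about 55%, limit read from the data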;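 also: signal also drops with host cell toxicity which is not excluded here; 0% = plate median of DMSO wells and 100% = zero luminescence signal; higher percent means less beta-gal luminescence so fewer parasites; stock transfer was 50 nL into about 50 µL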
Beta apoptosis: blocks beta cell apoptosis; INS-1E cytokine-induced death, ATP luminescence, 48 h; percent of positive-control rescue, neutral wells zero; protection from apoptosis, % (concentration not given with the values); hit rate 0.8% among 300,000;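 active = all replicates at 75% or more, or half of them and the mean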;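 also: 0% = cytokine-treated negative control wells and 100% = positive control rescue; higher means more ATP so stronger rescue from cytokine killing; wells of about 40 µL received 100 nL stock; the first replicate is given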
Ecoli rRNA inh OD600: recorded beside Ecoli rRNA inh, whose call it bears; OD600 change, %; measured here: OD600 growth;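 optical density of the mix in the first replicate; 0 = DMSO median and -100 = no signal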
Ecoli rRNA inh RFP: second read-out of Ecoli rRNA inh, no call of its own (marks repeat the call); RFP signal change, %; measured here: RFP humanized mutant strains;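 first replicate; 0 = DMSO median and -100 = no signal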
* hit, by the source's call; i = inactive; . = not tested or not shown; & = joins results of further samples.

Results follow in this order: MLL AF4-AF9 inh	FGF22 binding	UCH37 inh	Ecoli rRNA inh	Ecoli rRNA inh OD600	Ecoli rRNA inh RFP	Bfl-1 A1 inh	Ecoli growth	T cruzi repl	Beta apoptosis
- CC[C@]12c3[nH]c4ccccc4c3CCN1C(=O)C(CC(=O)NCCc1ccccn1)C[C@@H]2C(=O)N1CCN(C(=O)C2CC2)CC1 (some centres undefined)
    1.2	i	0.9	12.5	23.1	-2.2	-0.6	0.66	.	-3.7
- Cn1cc(CN(Cc2ccccc2)C[C@@H]2CCC(=O)N2)c(-c2ccccc2F)n1
    -2.8	i	2.9	3.8	8.7	2.4	0.1	0.665	12.3	-0.4
- O=C(Cn1cnc2sc(-c3ccccc3)cc2c1=O)NCc1ccco1
    .	.	-2.5	.	.	.	0.3	0.734	.	-1.8
- O=C(O)c1ccc(S(=O)(=O)c2ccc3c(c2)C(=O)N(c2ccc(Br)cc2)C3=O)cc1
    2.0	i	3.3	4.6	2.6	-1.3	0.5	0.725	4.1	-0.8
- C/C(=N\NC(=O)c1cccc(S(=O)(=O)N2CCCCC2)c1)c1ccc(C)o1
    2.4	i	.	4.6	8.2	-1.0	-0.1	.	.	3.5
- CCOc1cc(C)c(Cl)cc1S(=O)(=O)n1nnc2ccccc21
    .	.	2.7	.	.	.	0.6	0.702	-4.1	-1.0
- COc1ccccc1C(O)(C(=O)N(NC(C)=O)c1ccccc1)c1ccccc1OC
    -0.2	i	4.0	17.2	14.7	3.5	.	0.694	-5.4	.
- O=C(CNC(=O)c1ccccc1F)NCCc1ccc(Cl)cc1
    -8.9	i	1.1	3.3	5.0	2.8	-0.6	0.678	-11.7	-1.5
- COc1ccccc1-c1cc(C(=O)NN)[nH]n1
    -19.1	i	3.0	-20.4*	4.2*	2.8*	0.1	0.64	13.4	-1.0
- COc1cc(CCC(=O)Nc2nccs2)cc(OC)c1OC
    -4.6	i	3.5	6.9	8.7	-0.1	-1.7	0.66	-7.8	-4.4
- O=C(/C=C/Nc1ccccc1F)c1cccs1
    .	.	0.1	.	.	.	-8.8	0.628	-13.8	-8.7
- O=C(O)CSc1nnc2c(n1)[nH]c1ccccc12
    -0.9	i	7.7	2.6	7.5	-2.3	-0.9	0.694	-19.6	-0.6
- CC1CCN(C(=O)C2(NC(=O)Nc3cccc(F)c3)CCCCC2)CC1
    .	.	-3.4	.	.	.	-0.2	0.746	10.6	-7.1
- CON1C(=O)C(=O)N(OC)C2CCCCCC21 (centres undefined)
    -0.3	i	-1.5	24.4	19.4	-7.0	-0.4	0.688	0.8	-5.1
- COCCNc1nc(C)cc(-c2cc(C(=O)Nc3ccccc3)on2)n1
    .	.	-0.2	.	.	.	0.4	.	-2.0	-9.1
- N#Cc1ccc(S(=O)(=O)N2CCN(Cc3cccs3)CC2)cc1
    -1.7	i	0.0	-9.3	-1.9	-1.0	-0.4	0.693	.	4.0
- COc1ccc(NC(=O)CNc2cccc(C#N)c2)cc1Cl
    .	.	3.9	.	.	.	1.3	0.732	-10.2	6.1
- C=CCNC(=S)N1CCN(Cc2ccc3c(c2)OCO3)CC1
    -13.6	i	2.5	18.9	6.4	1.9	-0.5	0.682	10.4	-1.1
- COc1ccccc1C(=O)Nc1nnc(S(=O)(=O)N2CCCCCC2)s1
    3.1	i	2.7	-7.7	-5.4	0.2	0.4	0.78	12.0	-1.9
- CC(=O)Nc1nc(-c2ccc3ccccc3c2)cs1
    -0.1	i	3.4	1.4	13.5	-1.1	-4.5	0.696	7.4	7.8
- COc1ccccc1NC(=O)c1ccc(NC(=O)Cc2n[nH]c(=O)c3ccccc23)cc1
    -2.9	i	3.6	10.9	14.4	2.4	-0.4	0.71	-9.3	8.6
- COc1ccccc1NC1CCCCC1NS(=O)(=O)c1ccccc1 (centres undefined)
    -0.2	i	3.7	-28.1	-44.2	-8.2	-0.4	0.7	8.4	0.4
- CC(C)(C)NC(=O)c1sccc1C(=O)O
    .	.	1.8	.	.	.	-0.2	0.678	-2.7	-0.6
- CCOc1ccc(OCc2ccc(C(=O)NCc3cccnc3)o2)cc1
    .	.	1.6	.	.	.	0.1	0.638	-0.2	7.5
- Cc1c(NC(=O)C(C)OC(=O)CC2Sc3ccccc3NC2=O)c(=O)n(-c2ccccc2)n1C (centres undefined)
    .	.	-0.9	.	.	.	-0.3	0.705	1.8	-0.1
- O=C(Cc1ccc(Cl)cc1)NCCc1ccc(F)cc1
    -3.8	i	3.6	-24.4*	-19.1*	-2.4*	-0.2	0.677	1.1	-0.5
- Cc1cc(C)n(CC(O)CN(c2cccc([N+](=O)[O-])c2)S(=O)(=O)c2ccccc2)n1 (centres undefined)
    .	.	0.8	.	.	.	1.0	0.672	8.9	-3.0
- Cc1ccc(Cl)cc1NC(=S)N(Cc1cccs1)C1CCCC1
    -0.7	i	5.4	-18.0	-12.9	-0.9	-0.3	0.714	-4.5	-0.4
- COC(=O)C1C2C=CC3(CN(CC4CCCO4)C(=O)C13)O2 (centres undefined)
    .	.	5.3	.	.	.	-0.4	0.755	-31.7	-4.2
- COc1ccc(N2CCN(C(=O)c3cccc(F)c3)CC2)c([N+](=O)[O-])c1
    5.8	i	1.5	-1.1	-6.8	-6.3	0.4	0.717	-12.2	-0.6
- O=C1OCCC1Sc1nc2ccccc2[nH]1 (centres undefined)
    .	.	0.7	.	.	.	0.1	0.681	-6.6	-2.2
- C#CCn1c(=NC(=O)c2cccs2)sc2cccc(OC)c21
    -4.5	i	-26.6	2.2	5.0	-0.7	-0.5	0.762	37.2	6.6
- CC1(C)C(=O)Nc2ccccc2N1C(=O)COC(=O)c1ccc(Cl)c(S(=O)(=O)NCc2ccccc2)c1
    .	.	5.5	.	.	.	0.0	0.711	-7.8	5.6
- CCN(CC)S(=O)(=O)c1ccc(OC(C)C)c(NC(=O)c2c3c(nc4ccccc24)CCN(Cc2ccccc2)C3)c1
    -30.8	i	0.4	-5.2	7.5	5.3	0.8	0.745	47.7	13.5
- COc1ccc(-c2nnn(CC(=O)N(CC(=O)NCCC(C)C)Cc3cccs3)n2)cc1OC
    .	.	4.2	.	.	.	0.2	0.738	5.0	-3.4
- Cc1nn(CC(=O)NCc2ccc(-n3cccn3)cc2)c(C)c1[N+](=O)[O-]
    .	.	0.9	.	.	.	0.4	0.711	-1.6	-4.1
- COc1ccccc1N1CCC(N2CCN(CC(C)(C)C)C(CCO)C2)CC1 (centres undefined)
    1.1	i	5.6	2.1	8.1	0.1	0.6	0.723	-5.0	.
- C=CC[C@@H](CC(=O)NCCO)C(=O)NC[C@@H](OC(=O)[C@H](CC=C)CC(=O)OC(C)(C)C)c1ccccc1
    -1.2	i	3.5	-0.4	-2.8	-1.0	-1.1	.	.	-7.1
- CCc1nc(SCC(=O)Nc2ccccc2C)n[nH]1
    -7.6	i	1.8	1.1	6.8	2.1	-1.6	0.735	-8.3	-2.5
- CCOc1ccc(C(=O)OCC(=O)NCC2CCCO2)cc1 (centres undefined)
    0.2	.	3.7	7.2	11.8	-3.2	0.1	0.67	.	6.6

Exported tab-delimited: two of the compounds above
molecule	MLL AF4-AF9 inh	FGF22 binding	UCH37 inh	Ecoli rRNA inh	Ecoli rRNA inh OD600	Ecoli rRNA inh RFP	Bfl-1 A1 inh	Ecoli growth	T cruzi repl	Beta apoptosis
CCN(CC)S(=O)(=O)c1ccc(OC(C)C)c(NC(=O)c2c3c(nc4ccccc24)CCN(Cc2ccccc2)C3)c1	-30.8	i	0.4	-5.2	7.5	5.3	0.8	0.745	47.7	13.5
C=CC[C@@H](CC(=O)NCCO)C(=O)NC[C@@H](OC(=O)[C@H](CC=C)CC(=O)OC(C)(C)C)c1ccccc1	-1.2	i	3.5	-0.4	-2.8	-1.0	-1.1	.	.	-7.1

Later entries.
Results follow in this order: MLL AF4-AF9 inh	FGF22 binding	UCH37 inh	Ecoli rRNA inh	Ecoli rRNA inh OD600	Ecoli rRNA inh RFP	Bfl-1 A1 inh	Ecoli growth	T cruzi repl	Beta apoptosis
- Nc1ccc(NS(=O)(=O)c2ccccc2)cc1
    0.7	i	4.1	23.4	13.7	6.6	1.7	0.686	1.6	5.6
- CCC1ON(c2ccccc2)C2c3nc4ccccc4n3CC12 (centres undefined)
    .	i	0.9	6.7	8.1	-0.1	-0.5	0.726	-22.3	3.1
- Cc1nc(C)c(C(=O)NNC(=O)c2ccc(Br)cc2)s1
    0.9	i	4.3	3.6	4.9	1.1	-1.2	0.68	-0.5	-7.6
- COc1ccc(CNC(=O)CCS(=O)(=O)c2cc3c(cc2Cl)NC(=O)CO3)cc1
    -10.7	i	3.7	10.0	12.3	8.1	1.5	0.652	-6.1	.
- Cc1occc1C(=O)NNC(=O)NC12CC3CC(CC(C3)C1)C2
    .	.	1.8	.	.	.	0.7	0.656	-12.0	-2.1
- CC1CCC2(CC1)NC(=O)N(CC(=O)Nc1ccc(F)cc1)C2=O (centres undefined)
    2.1	i	0.6	-4.1	4.9	0.1	0.1	0.712	.	-1.2
- CC1(C)SC(=S)N(/N=C/c2cccnc2)C1N(O)C(=O)NC1CCCCC1 (centres undefined)
    -5.6	i	.	16.2	-1.3	3.3	-0.2	.	-16.6	-6.2
- COc1cccc(-c2cc(C(=O)Nn3cnnc3)c3ccccc3n2)c1
    2.2	i	-3.2	5.1	5.7	2.2	-0.7	0.723	-9.6	-2.2
- Cn1c2ccccc2c2c(C(=O)NCc3ccco3)cn(C3CCCCC3)c(=O)c21
    .	.	-24.5	.	.	.	-0.7	0.753	3.2	-0.1
- O=C(O)c1[nH]c2ccccc2c1C=NCc1ccccc1Cl
    -2.0	i	-9.3	5.1	5.9	-4.9	1.6	0.662	0.6	-4.8
- CC1(Br)C2CCCC1C2S(=O)(=O)c1ccccc1 (centres undefined)
    .	.	-0.5	.	.	.	-0.9	0.653	-4.1	-2.1
- O=C(O)C1CCN(S(=O)(=O)c2cccnc2)CC1
    .	.	1.4	.	.	.	-0.6	0.758	-3.1	-6.7
- O=S(=O)(Nc1cccnc1)c1ccc(Cl)cc1
    .	.	2.1	.	.	.	-0.3	0.658	-14.4	-7.6
- CCO[C@@H]1OC(C(=O)NC2CC2)=C[C@H](c2ccc3c(c2)OCO3)[C@H]1CCCO
    2.9&-1.6	i	2.4	13.3	11.4	-2.1	0.3	.	6.9	1.2
- O=C(CCCOc1ccccc1)Nc1nc2ccccc2[nH]1
    -8.1	.	1.1	5.4	1.3	1.1	-4.1	0.727	-16.1	-5.0
- CC(=O)c1ccc(N2CCN(C(=O)C3CCCN(S(=O)(=O)c4c(C)[nH]c(=O)[nH]c4=O)C3)CC2)cc1 (centres undefined)
    -1.0	i	3.9	4.2	-4.0	-4.4	0.3	0.682	24.4	-0.2
- O=C(Nc1ccc(F)cc1)Nc1cccnc1
    -3.8	i	2.5	4.0	10.4	-1.4	-4.0	0.636	-5.2	6.8
- c1ccc(-c2nnc(N3CCCC3)nc2-c2ccccc2)cc1
    12.0	i	0.1	-32.4	-45.7	-11.8	.	0.68	14.6	.
- O=[N+]([O-])c1cccc(CN2CCC(Cc3ccccc3)CC2)c1
    13.7	i	3.5	0.1	-3.2	-1.1	0.9	0.616	-8.0	-5.4

Source: PubChem (several laboratories)

These rows are one share of the data; rates above refer to the full screens.
